Screens as filed in PubChem.
VDR inh – vitamin D3 receptor (human) inhibition; P11473; VDR-SRC2-3 peptide fluorescence polarization, 2 h; Potency, µM, without a hit: max response, negative = inhibition, most hits filed as inhibitors; 0.93% of 400,000 active; active means well fitted inhibition curve with a large enough effect; inconclusive means small, poorly fitted or top-dose-only effect, or another doubt; inactive means no such curve, though single readings can be large or run the other way; further: series mostly up to about 120 µM
Target sequence (P11473 whole entry, looked up): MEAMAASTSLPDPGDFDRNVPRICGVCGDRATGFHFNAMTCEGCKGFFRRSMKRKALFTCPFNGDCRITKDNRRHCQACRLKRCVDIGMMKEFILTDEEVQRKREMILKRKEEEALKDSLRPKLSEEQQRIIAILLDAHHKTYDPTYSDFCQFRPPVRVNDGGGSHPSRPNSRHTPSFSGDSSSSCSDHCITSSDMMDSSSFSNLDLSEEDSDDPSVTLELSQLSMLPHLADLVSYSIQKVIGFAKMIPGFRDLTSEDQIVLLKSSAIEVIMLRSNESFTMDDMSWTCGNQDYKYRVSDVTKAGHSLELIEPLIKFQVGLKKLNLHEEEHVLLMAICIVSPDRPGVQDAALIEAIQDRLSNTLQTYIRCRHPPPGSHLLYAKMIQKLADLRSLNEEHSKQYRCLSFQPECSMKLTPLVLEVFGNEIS
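Fluorescence polarization assay of small-molecule disruption of VDR binding to coregulator peptide SRC2-3. Compounds and controls pin-transferred, then read after 2 h incubation at ambient room temperature.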
Numbers without * were called inactive; ? = inconclusive; & = joins results of further samples; [ ] = another dose, or the depositor's remark. On the % scale 0 is the no-effect control and ±100 the full control effect; potency means the concentration at half of the fitted maximal effect.

SMILES	VDR inh
CCN(CC(=O)Nc1ccc(C(C)=O)cc1)CC(=O)Nc1cccc(OC)c1	-7%
CC(C)[C@H](NC(=O)[C@H](CCCN=C(N)N)NC(=O)NC(Cc1ccccc1)C(=O)O)C(=O)NC(C=O)CCCN=C(N)N (some centres undefined)	-7%
Cn1nnnc1Sc1ncnc2scc(-c3cccc4c3sc3ccccc34)c12	-4%
C=CCNC(=O)c1cccc(OC2CCN(CC(C)(C)C)CC2)c1	7%
C=CCc1cccc(/C=C/c2cc(=O)c3ccccc3[nH]2)c1O	-3%
O=C1NCCN1C(=O)c1ccccc1F	8%
O=C(COC(=O)CCS(=O)(=O)c1ccccc1)Nc1ccccc1	-10%
COC(=O)c1c(NC(=O)CSc2ncnc3ccccc23)sc(C)c1C	43%[activator]
O=C(CN(CCc1ccccc1)Cc1ccccc1)Oc1ccccc1P(=O)(O)O	-20%
CCCCOC(=O)CSCC(=O)Nc1cc(C)on1	13%
O=C(O)c1ccccc1C(=O)Nc1ccc(Oc2ccccc2)cc1	20%
CCCN1C(=O)SC(CC(=O)Nc2ccc(Br)cc2)C1=O (centres undefined)	11%
CCS(=O)(=O)c1ccc2oc(SCC(=O)NC3CCCC(C)C3C)nc2c1 (centres undefined)	5%
O=C(NC(=S)Nc1cccc2ncccc12)c1ccccc1	-7%
CSc1ccccc1NC(=O)Nc1cccc(Cl)c1	-3%
COc1ccc(-c2c(C#Cc3ccsc3)c3cc(-c4cccc5[nH]ccc45)ccc3n2C)cc1	-3%
O=c1c(-c2ccccc2)c[nH]n1-c1cccc([N+](=O)[O-])c1	16%
COc1cc(-c2ccccc2)[nH]c(=S)n1	?
COc1ccc2sc(-c3ccccc3OC)c(C#CC(C)(C)O)c2c1	2%
CN1C(=O)c2ccccc2Sc2ccc(NC(=O)COc3ccccc3)cc21	24%
CN(Cc1ccco1)c1ccnc(-c2ccoc2)n1	45µM*
Cc1cccc(NS(=O)(=O)c2cc3c4c(c2)CC(=O)N4CCC3)c1C	12%
CN1C(=O)NC(NC(=O)c2ccncc2)(C(F)(F)F)C1=O (centres undefined)	-5%
NC(=S)N/N=C/c1cc([N+](=O)[O-])ccc1OCCOc1ccccc1	10%

Four compounds drawn at random from the list so far:
SMILES	VDR inh
CCS(=O)(=O)c1ccc2oc(SCC(=O)NC3CCCC(C)C3C)nc2c1 (centres undefined)	5%
COc1ccc2sc(-c3ccccc3OC)c(C#CC(C)(C)O)c2c1	2%
O=c1c(-c2ccccc2)c[nH]n1-c1cccc([N+](=O)[O-])c1	16%
COc1cc(-c2ccccc2)[nH]c(=S)n1	?

Later entries:
SMILES	VDR inh
COc1ccccc1C(CCNCc1ccccc1)c1ccc(OC(C)C)cc1 (centres undefined)	8%
CC1CCCC(C)N1/N=C/c1cccc(Br)c1 (centres undefined)	-6%
Cc1ccc(OCC(=O)NCCCNC(=O)c2ccccn2)cc1C	-6%
CN(c1ccccc1C(=O)NCc1ccccc1Cl)S(=O)(=O)c1ccccc1	3%
Cc1ccccc1[C@@H]1C(C#N)=C(N)S[C@H]1C(=O)c1ccccc1	1%
COc1ccc(/C=C/C(=O)Nc2ccc(NC(C)=O)cc2)cc1S(=O)(=O)N1CCOCC1	-15%
Cc1ccc2cccc(NC(=O)c3cccc4ccccc34)c2n1	0%
COc1ccc(S(=O)(=O)N2CCOC23CCN(S(=O)(=O)c2cc(C)ccc2C)CC3)cc1	9%
CN1CCN(c2ccc(CNS(=O)(=O)c3ccc(Cl)cc3)cc2)CC1	16%
COc1ccc(N=Cc2ccc(N(CCC#N)CCC#N)cc2)cc1	6%
O=C(C1CCC(=O)N1Cc1cccs1)N1CCOCC1 (centres undefined)	-16%
CC(C)C(NC(=O)CN(c1cccc(F)c1)S(C)(=O)=O)C(C)C	0%

5 structures from above, sorted by molar mass, descending:
SMILES	VDR inh
COc1ccc(S(=O)(=O)N2CCOC23CCN(S(=O)(=O)c2cc(C)ccc2C)CC3)cc1	9%
COc1ccc(/C=C/C(=O)Nc2ccc(NC(C)=O)cc2)cc1S(=O)(=O)N1CCOCC1	-15%
COc1ccccc1C(CCNCc1ccccc1)c1ccc(OC(C)C)cc1 (centres undefined)	8%
CN1CCN(c2ccc(CNS(=O)(=O)c3ccc(Cl)cc3)cc2)CC1	16%
O=C(C1CCC(=O)N1Cc1cccs1)N1CCOCC1 (centres undefined)	-16%

The list goes on.
SMILES	VDR inh
COC(=O)c1c(NC(=O)CCC(=O)O)sc2c1CCCCC2	-11%
CCc1nnc(NC(=O)CCN(c2cc(C)cc(C)c2)S(=O)(=O)c2ccc(Cl)cc2)s1	2%
CCc1nn(CC(=O)Nc2cc(C)ccc2C)c(=N)s1	-19%
Cc1cc(C)cc(N2C(=O)CS(=O)(=O)C23C(=O)N(Cc2ccccc2)c2ccccc23)c1 (centres undefined)	-13%
Cc1cccc(OCC(=O)Nc2cccc(OCc3cc(=O)n4cccc(C)c4n3)c2)c1	-7%
CSc1ccc(CN2CCCN(C)CC2)cc1	-18%
O=C(CCl)N1CCN2C(=O)c3ccccc3C12c1ccc(Cl)cc1 (centres undefined)	?
CCn1c(CNC(=O)c2ccccc2F)cc2ccccc21	-1%
O=C1CC2(CCN(C(=O)C3CC(=O)N(c4ccccc4)C3)CC2)Oc2ccccc21 (centres undefined)	0%
O=C(NCCC1=CCCCC1)c1cc2ccccc2oc1=O	-2%
O=C(COC(=O)C1=COCCO1)NC1CCCCC1	-5%
Cc1sc(NC(=O)CSc2nnnn2C2CCCCC2)c(C#N)c1C	-6%

An excerpt from above in order of their number in VDR inh, descending:
SMILES	VDR inh
O=C1CC2(CCN(C(=O)C3CC(=O)N(c4ccccc4)C3)CC2)Oc2ccccc21 (centres undefined)	0%
O=C(NCCC1=CCCCC1)c1cc2ccccc2oc1=O	-2%
Cc1sc(NC(=O)CSc2nnnn2C2CCCCC2)c(C#N)c1C	-6%
Cc1cccc(OCC(=O)Nc2cccc(OCc3cc(=O)n4cccc(C)c4n3)c2)c1	-7%
CSc1ccc(CN2CCCN(C)CC2)cc1	-18%

The listing continues.
SMILES	VDR inh
CCCNS(=O)(=O)c1cc(-c2nn3c(C)nnc3c3ccccc23)ccc1C	-5%
CCCS(=O)(=O)N1CCC(C(=O)NCc2cccnc2)CC1	2%
CCN(CC(=O)Nc1ccc(NC(C)=O)cc1)C(=O)/C=C/c1c(C)nn(-c2ccc(F)cc2)c1C	8%
Cc1nnc(SCC(=O)N(C(C)C)C(C)C)[nH]c1=O	3%
COc1nc(N)c(S(=O)(=O)c2ccc(C)cc2)cc1C#N	-1%
Clc1ccc(C2[C@H]3CN(CC4CCCCC4)[C@H](c4ccccc4)C34CC2(c2ccccc2)C4)cn1 (some centres undefined)	-20%
Cc1ccc(-n2nc(C(=O)N3CCN(c4ccccc4F)CC3)c3c4ccccc4n(C)c3c2=O)cc1	-16%
COc1ccc(-n2ncc3c(=O)n(CC(=O)N4CCCc5ccccc54)cnc32)cc1	17%
COc1ccccc1N1CCN(C(=O)CN2C(=O)COc3ccc(S(=O)(=O)N4CCCC4)cc32)CC1	-1%
CCCc1nc(NCc2ccncc2)c2nnn(Cc3ccccc3F)c2n1	11%
Cc1ccc2c(C)c(C(=O)N3CCN(Cc4ccc5c(c4)OCO5)CC3)oc2c1C	12%
COCCN(Cc1ccccc1)C(=O)C1CCN(S(=O)(=O)c2ccc3c(c2)OCCO3)CC1	9%
C/C(=N\NC(=O)CN1CCN(S(=O)(=O)c2ccc(C)cc2)CC1)c1ccncc1	14%
O=C(CN1CCC(n2nnc3cc(F)ccc32)CC1)NC1CC1	8%
Cc1cc(C)c(S(=O)(=O)N(C)CC(=O)NCCCn2ccnc2)c(C)c1	7%
C/C(=N/NC(=O)c1cccc(C)c1)c1c(O)cc(C)oc1=O	-5%
CCC1CCc2nc3sc(C(=O)Nc4ccc(C)cc4)c(N)c3cc2C1 (centres undefined)	6%
COc1cc(SC)ccc1C(=O)OCC(=O)NC1CC1	-4%
C#CCSc1nc2[nH]ncc2c(=O)[nH]1	-8%
Cc1cc(N2CCN(C3CCCCC3)CC2)n2nc(C)nc2n1	-4%
CCCN(C(=O)C1CC(=O)N(c2ccccc2C(C)CC)C1)C1CCS(=O)(=O)C1 (centres undefined)	-11%
Cc1ccc(C)c(NS(=O)(=O)c2ccccc2C)c1	-2%
C[C@H](NC(=O)c1nc[nH]c1C(=O)N[C@@H](CCCCNC(=O)OC(C)(C)C)C(=O)OC(C)(C)C)C(=O)OCc1ccccc1	9%
O=S1(=O)Nc2c(cc(Cl)c3ccc(Cl)nc23)-c2ccccc21	-4%
O=S(=O)(O)c1cc(OS(=O)(=O)c2ccccc2)cc2ccccc12	1%
CCc1cc2c(=O)c(-c3nc4ccccc4[nH]3)coc2c(CN2CCCCC2)c1O	5%
CCC1CN(C(=O)N2CCC(C(=O)NCCCc3ccccc3)CC2)c2cc(C)ccc2O1 (centres undefined)	-4%
Cc1ccc(/C=C/C(=O)NC(=S)Nc2ccc(S(=O)(=O)Nc3cc(C)on3)cc2)cc1	-6%
Cn1cccc1CC(=O)N/N=C\c1cccs1	-5%
O=S(=O)(Nc1ccc2c(c1)OCO2)c1ccc(Cl)cc1F	-20%
O=C(O)c1cc(-c2ccc(/C=N/N3C(=O)C4C5C=CC(C6CC56)C4C3=O)o2)ccc1Cl (centres undefined)	20%
COCCN(Cc1cc2cc3c(cc2nc1Cl)OCO3)C(=O)Nc1ccccc1OC	-14%
C=CCNC(=O)c1cc(Cl)ccn1	-2%
CC1=Nc2cc(C(=O)O)ccc2Sc2ccc(C)cc21	-9%
Cc1c(C#N)c2ncn(Cc3ccccc3)c(=O)c2n1-c1ccccc1	6%
C/C(N)=C(/C#N)C(=O)CSc1nnc(-c2ccccc2Br)o1	11%
Cc1ccc(C)c(-n2nnnc2SCC(=O)NCCC2=CCCCC2)c1	-2%
CC(C)c1ccc(S(=O)(=O)N2CCCCC2)cc1	-4%
CCC(=O)Nc1cccc(Br)c1	10%
Cc1ccc(-c2nc(CCNC(=O)C(=O)Nc3ccc(C)c(Cl)c3)cs2)cc1	1%
COc1cccc(NC(=O)Nc2ccncc2)c1	-9%
Cc1cc(-c2ccccc2)nc(N/N=C/c2ccc([N+](=O)[O-])cc2)n1	-1%
Cc1ccc(-c2nn(Cc3ccccc3)cc2C(=O)N2CCN(c3ccccn3)CC2)cc1	-6%
Cn1c(SCC(=O)c2ccc3c(c2)NC(=O)CO3)nc2ccccc21	-1%
CCCCNS(=O)(=O)c1ccc2nc(-c3cccnc3)cc(C(=O)NCCCOCC)c2c1	15%
CC(=O)Nc1ccc(S(=O)(=O)N2CCC(c3nnc(-c4ccc(C)cc4)o3)CC2)cc1	-4%&0%
Oc1ccc(NC(=S)N=Nc2c(O)[nH]c3ccccc23)cc1	10%
COc1ccc(CNC(=O)c2coc(=O)c3ccccc23)cc1	21%
CC(CCc1ccccc1)NC(=O)COc1ccc(S(=O)(=O)N2CCOCC2)cc1[N+](=O)[O-] (centres undefined)	5%
CCN(CC)S(=O)(=O)c1ccc2c(c1)N(CC(=O)Nc1ccc(F)cc1)C(=O)CO2	-10%
Cc1ccc2nc(N(Cc3cccnc3)C(=O)c3ccc4c(c3)OCCO4)sc2c1	14%
CCN(CC)c1nn2c(=O)c(C(=O)NCCc3cccc(C)c3)cnc2s1	9%
Cc1cccc(C(=O)NCCc2nc3ccccc3n2CCC(C)C)c1	15%
COC(=O)C1=C(C)N(Cc2ccccc2)C(=O)N[C@H]1c1ccco1	-21%
CC(=O)Nc1cc2ccc(OC(C)=O)cc2oc1=O	-1%
Cc1ccc(OCCN2CCOCC2)cc1C	-6%
CCOC(=O)CN1C(=O)C(=O)N(Cc2cccc(C)c2)C1=O	0%
CN(C)c1ccc(C(CNC(=O)c2ccccc2Br)c2c[nH]c3ccccc23)cc1 (centres undefined)	-9%
CCOC(=O)N1CCN(C(=O)CCCCn2c(=S)[nH]c3ccsc3c2=O)CC1	22%
CC(C)Cn1c(=O)[nH]c(=O)c2c(C(F)(F)F)cc(-c3ccccc3)nc21	-18%

Remaining list, next part.
SMILES	VDR inh
Cc1nc(NC(=O)c2ccccc2)sc1Cc1ccc2c(c1)OCO2	-14%
COc1cc(C(=O)N2CCC(C(=O)Nc3cccc(C(C)=O)c3)CC2)cc(OC)c1OC	11%
O=C(NC1CCCCCC1)C(Cc1ccccc1)n1cccc1 (centres undefined)	33%[activator]
COc1ccc(N2CCN(S(=O)(=O)CCNC(=O)c3ccc(C(F)(F)F)cc3)CC2)cc1	1%
COc1ccc([C@H]2CC(=O)C=C(c3ccc(O)cc3)C2)cc1OC	-2%
Cc1ccccc1Cn1cnc2c(cnn2C(C)(C)C)c1=O	2%
CCOC(=O)c1c(NC(=O)COc2ccc(CC)cc2)sc2c1CCCC2	1%
Cc1ccc[n+](CC(=O)/C=C2\N(C)c3ccccc3C2(C)C)c1	-7%
O=C(O)CNS(=O)(=O)c1ccc(C2CCCCC2)cc1	4%
CCCCC(=O)NC(=S)NNC(=O)c1ccc(OC)cc1	-10%
Cc1ccc(NC(=O)Cc2c(O)c3ccccc3[nH]c2=O)c(C)c1	4%
COc1ccc(-c2nn(-c3ccccc3)cc2N)cc1	-9%
CCOC(=O)c1ccc(NC(=O)Cn2nnc(-c3ccc(F)cc3)n2)cc1	-3%
CCCSc1nc(O)c(C2OC(=O)c3c2ccc(OC)c3OC)c(=O)n1-c1ccccc1 (centres undefined)	-8%
CC(=O)N1c2ccccc2C2CCCC[C@@H]21 (some centres undefined)	-12%
CN1CCN(C(=O)c2ccc(C(C)(C)C)cc2)CC1	-26%
COCC(C)NC(=O)COc1ccc(Cl)cc1Cl (centres undefined)	-10%
Cc1c(C(=O)Nc2ccccc2-c2ccccc2)cccc1[N+](=O)[O-]	-9%
Cc1ccc(CSc2nc3c(c(=O)[nH]2)C(c2ccncc2)C2=C(CCCC2=O)N3)cc1 (centres undefined)	8%
Cc1nn(C)c2c1c(C(F)(F)F)cc(=O)n2C(C)C(=O)NCc1ccc(Cl)cc1 (centres undefined)	-4%
CC(=O)c1nn(-c2cccc(Cl)c2)cc1C(=O)c1ccco1	7%

Only part of the results is shown (hit frequency here may not be typical).
